From PubChem BioAssay
Mtb growth – M. tuberculosis H37Rv growth inhibitors, H37Rv strain (AID 1626); M. tuberculosis H37Rv growth inhibition; higher % means a stronger effect; inhibition, % at 10 µM, or IC50 in µM where a hit was titrated; hit rate 0.95% among 220,000;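 active = confirmed in a dose series; inconclusive = inhibition above 80% but not taken into the dose series; inactive = below 80% or under 30% at every dose of the series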;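 note: bacteria incubated seven days before Alamar blue readout; 0% = bacteria only wells and 100% = bacteria with antibiotic wells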
RecA splice inh – inhibitors of M. tuberculosis RecA intein splicing; P9WHJ3; cell-free RecA intein splicing, fluorescence; inhibition, %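 (about 9 µM by stock and volumes)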; AID 2221; hit rate 0.75% among 290,000; in the data active = inhibition above about 30%; inconclusive = no clear call, values can overlap the other calls;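 note: 0% = vehicle wells and 100% = reference inhibitor control wells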
Target sequence (P9WHJ3 whole entry, looked up, canonical isoform): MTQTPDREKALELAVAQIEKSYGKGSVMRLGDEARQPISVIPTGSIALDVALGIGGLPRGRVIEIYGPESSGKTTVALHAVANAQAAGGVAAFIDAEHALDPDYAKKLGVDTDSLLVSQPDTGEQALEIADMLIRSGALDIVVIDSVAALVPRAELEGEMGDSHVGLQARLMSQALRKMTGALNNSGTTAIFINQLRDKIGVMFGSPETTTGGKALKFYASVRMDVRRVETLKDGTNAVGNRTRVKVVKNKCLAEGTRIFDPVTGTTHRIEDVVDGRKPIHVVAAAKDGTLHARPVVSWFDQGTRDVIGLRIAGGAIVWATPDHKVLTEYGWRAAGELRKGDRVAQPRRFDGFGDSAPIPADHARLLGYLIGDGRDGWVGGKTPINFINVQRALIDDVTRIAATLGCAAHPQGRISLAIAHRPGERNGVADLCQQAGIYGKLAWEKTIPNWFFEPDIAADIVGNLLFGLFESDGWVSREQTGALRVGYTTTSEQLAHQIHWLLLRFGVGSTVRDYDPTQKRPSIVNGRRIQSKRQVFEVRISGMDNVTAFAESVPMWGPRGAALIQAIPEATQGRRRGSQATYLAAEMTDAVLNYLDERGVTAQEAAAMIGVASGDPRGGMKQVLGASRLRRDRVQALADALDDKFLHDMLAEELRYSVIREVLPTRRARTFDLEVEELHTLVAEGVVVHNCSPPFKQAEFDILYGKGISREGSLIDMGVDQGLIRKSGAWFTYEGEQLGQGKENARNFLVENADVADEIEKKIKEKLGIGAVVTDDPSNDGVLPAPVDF
Mtb betalactam – beta-lactam sensitization of Mtb H37Rv. AID 434955. inhibition, % at 25 µM. M. tuberculosis H37Rv growth with meropenem, percent inhibition; hits of this screen are not shown here. hit rate 0.27% among 330,000;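 active = about 74% or more and at least 40 points above the plate without the antibiotic, then above 30% in a dose series; inconclusive = first-round hits that could not be retested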;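 note: growth measured after seven days incubation then overnight dye step; 0% = bacteria only wells and 100% = bacteria with antibiotic; twin plates without the antibiotic show which effects depend on it; some results filed as inactive read as strong as hits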
YopH PTP inh – YopH (Yersinia) phosphatase inhibition. fluorescence Ex485/Em525. inhibition, %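 (about 10 µM by stock and volumes)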. hit rate 0.16% among 140,000. AID 898;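 active = inhibition of 50% or more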;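 note: controls were vehicle for no effect and minimum signal wells for full effect; inactives centre near -20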
Arbovirus inh – blocks arbovirus infection. arbovirus infection cell-based antiviral screen. inhibition, % at 10 µM. hit rate 0.37% among 200,000;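 active = inhibition from about 30%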;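 note: bluetongue infection of BSR cells; cell survival read as ATP light after 72 h; 0% = infected wells without compound and 100% = uninfected wells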
Arbovirus inh repeat – recorded beside Arbovirus inh, whose call it bears; inhibition, %; measured here: 10K subset replicate screen; many hits read low in the repeat;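 first of two repeat runs on a subset; 0% = infected and 100% = uninfected wells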
* marks the source's active call; other numbers are inactive results; u = inconclusive; x = no result given. This is a subset; count on the stated rates, not on these rows.

SMILES	Mtb growth	RecA splice inh	Mtb betalactam	YopH PTP inh	Arbovirus inh	others
O=C(Cc1cccc2ccccc12)NNC(=O)c1cccs1	0%	0.6	-6	-29	-2
OCCNc1c2c(nc3ccccc13)CCCC2	9%	-1.1	-5	-40	1
Cc1cc(C)c(NS(=O)(=O)c2ccc3c(c2)NC(=O)CC(=O)N3)c(C)c1	-1%	-1.4	2	-17	5
Cc1ccc(C(=O)NNC(=O)c2csc(N3CCOCC3)n2)s1	x	-0.2	-9	x	x
O=C1c2cccc3c(Nc4ccccc4Cl)c([N+](=O)[O-])cc(c23)C(=O)N1CCO	-1%	-3.8	-13	-33	-17
O=C(/C=C\c1ccco1)Nc1nc(-c2ccccc2)cs1	9%	2.7	4	-18	9
CCN(CC(=O)Nc1sc2c(c1C#N)CCCC2)CC(=O)NC1CCS(=O)(=O)C1 (centres undefined)	3%	-1.1	-4	x	0
CCN(C(=O)COC(=O)CSc1ccc(C)c(C)c1)C1CCS(=O)(=O)C1 (centres undefined)	x	-1.4	-12	x	x
CC(C)CC1C(C#N)=C(N)OC2=C1C(=O)CC(c1ccccc1)C2 (centres undefined)	40%	-1.1	2	x	15
CC(=O)N1CCC(N(CCN2CCOCC2)C(=O)Nc2ccc(Cl)c(Cl)c2)CC1	5%	-0.4	-6	0	-1	Arbovirus inh repeat=-5
O=C(C[n+]1ccccc1)N/N=C/c1ccc(Cl)c(Cl)c1	x	0.5	3	x	x
C=CCN1C(=O)C(O)(CC(=O)c2ccc(N)cc2)c2ccccc21 (centres undefined)	2%	-0.6	-12	-10	-7
O=C(O)c1ccc(C2NCC(c3ccccc3Cl)c3c2[nH]c2ccccc32)cc1 (centres undefined)	0%	2.1	-8	x	4
COc1ccccc1NS(=O)(=O)c1ccc(C)c(C(=O)NCC2CCCO2)c1 (centres undefined)	-1%	-3.2	0	0	-1
CCOc1ccccc1NC(=O)N1CCN(S(C)(=O)=O)CC1	-2%	-1.9	-10	x	-3
O=C(Nc1nc2ccccc2s1)c1ccccc1	0%	-0.7	0	x	6
Cc1ccc(N=CNc2ccc(C)cc2C)c(C)c1	-5%	0.2	-4	x	x
Cc1cc(NC(=O)CCN2C(=O)/C(=C/c3ccccc3Cl)SC2=S)no1	4%	1.0	43	-24	10
COc1ccc(N2CCN(C(=O)C(=O)c3c(C)[nH]c4ccccc34)CC2)cc1	x	-1.1	5	x	x
CC(=O)Nc1ccc(C(=O)NNC(=O)C2C3CCCCC32)cc1 (centres undefined)	x	1.3	-3	x	x
COc1ccc(C(=O)/C=C/c2ccc(OC)cc2OC)c(O)c1	7%	-1.1	70	x	-1
CCOC(=O)COn1c(=O)c(-c2ccc(Cl)cc2)[n+]([O-])c2ccccc21	x	-2.1	8	x	x
COc1ccc(C2CC(=O)N(CCCN(C)CCc3ccc(OC)c(OC)c3)C2)cc1 (centres undefined)	3%	1.8	-2	x	4
CC(=O)Nc1ccc(SCC(=O)c2cc(C)n(C)c2C)cc1	0%	-1.4	x	-17	17
CC(C)c1ccccc1NC(=O)C1CN(S(=O)(=O)c2ccccc2)CCN1S(=O)(=O)c1ccccc1 (centres undefined)	65%	0.2	3	-18	-2

A section from further up:
SMILES	Mtb growth	RecA splice inh	Mtb betalactam	YopH PTP inh	Arbovirus inh	others
COc1ccc(N2CCN(C(=O)C(=O)c3c(C)[nH]c4ccccc34)CC2)cc1	x	-1.1	5	x	x
CC(=O)Nc1ccc(C(=O)NNC(=O)C2C3CCCCC32)cc1 (centres undefined)	x	1.3	-3	x	x
COc1ccc(C(=O)/C=C/c2ccc(OC)cc2OC)c(O)c1	7%	-1.1	70	x	-1
CCOC(=O)COn1c(=O)c(-c2ccc(Cl)cc2)[n+]([O-])c2ccccc21	x	-2.1	8	x	x
COc1ccc(C2CC(=O)N(CCCN(C)CCc3ccc(OC)c(OC)c3)C2)cc1 (centres undefined)	3%	1.8	-2	x	4
CC(=O)Nc1ccc(SCC(=O)c2cc(C)n(C)c2C)cc1	0%	-1.4	x	-17	17
CC(C)c1ccccc1NC(=O)C1CN(S(=O)(=O)c2ccccc2)CCN1S(=O)(=O)c1ccccc1 (centres undefined)	65%	0.2	3	-18	-2

Next part.
SMILES	Mtb growth	RecA splice inh	Mtb betalactam	YopH PTP inh	Arbovirus inh	others
O=C(CNC(=O)c1nc[nH]c1C(=O)N1CCN(c2ccccc2)CC1)OCc1ccccc1	x	0.8	1	x	x
Cc1nnnn1-c1cccc(C(=O)O)c1	-3%	-1.1	2	-12	-1
Cc1ccc(N(C(=O)CS(=O)CC(=O)Nc2ccc(F)cc2)C(C(=O)NC2CCCCC2)c2ccco2)cc1 (centres undefined)	-5%	-0.3	-1	-3	-6
O=C1COc2ccc(C(=O)COc3ccc(Cl)cc3Br)cc2N1	x	5.8	-3	x	x
Cc1ccc(-c2csc3nc[nH]c(=O)c23)cc1C	x	0.9	5	x	x
CC(NC(=O)CCNS(=O)(=O)c1ccc2c(c1)c(=O)n(C)c(=O)n2C)c1ccccc1 (centres undefined)	-4%	2.9	x	-31	2
COc1ccc(OC)c(-n2nnnc2SCC(=O)Nc2cc(C)ccc2OC)c1	3%	1.7	-7	-16	-2
CCCCOc1ccc(CN2CCN(CC)CC2)cc1	-5%	-1.4	-20	-12	-15
C/C(=N\NC(=O)Cc1csc(N2CCOCC2)n1)c1ccccc1	-13%	-1.1	-19	-13	8
O=C(N/N=C/C=C/c1ccc2c(c1)OCO2)C(O)c1ccccc1 (centres undefined)	-4%	-3.6	-5	x	x
CC(C)C(NC(=O)c1ccc2c(c1)OCO2)C(=O)N/N=C/c1cccs1 (centres undefined)	-4%	-1.2	9	-25	2
COCCN1CCN(C(=O)C2CCC(=O)N(Cc3ccccc3F)C2)CC1 (centres undefined)	x	0.4	-12	x	x
COc1cc(/C(C#N)=C/c2ccccc2)c([N+](=O)[O-])cc1OC	5%	-0.5	-3	-35	-2
CCOc1ccc2nc(SC3CC(=O)N(c4cccc(OC)c4)C3=O)sc2c1 (centres undefined)	43%	-2.3	x	-19	-6
Cc1cc(OCC(=O)N2CCCC2)cc(C)c1Cl	13%	0.5	11	-13	4
CCN(CC(=O)Nc1cc(Cl)ccc1C)C(=O)c1oc2ccc(OC)cc2c1C	x	0.2	5	x	x
CC(C)c1nc(NCc2ccccc2)c(C#N)c2c1CCCC2	2%	1.9	16	-30	7
O=C1C(Cl)=C(N2CCOCC2)C(=O)N1c1cccc(C(F)(F)F)c1	x	90*	18	x	x
c1ccc2cc(CSCc3nc4ccccc4[nH]3)ccc2c1	6%	11	-4	-15	9
Cc1ccc(C)c(N2CCN(C(=O)CCS(=O)(=O)c3ccc4c(c3)CCN4C(=O)C3CC3)CC2)c1	x	5.5	u	x	x
O=c1cc(/N=C/c2coc3c(ccc4ccccc43)c2=O)[nH]c(=S)[nH]1	72%	-3.8	73	-4	-29
Cc1ccccc1NC(=S)N1CCC(NC(=O)c2ccco2)CC1	-3%	-3.5	5	x	-2
CCc1ccc(OCc2nnc(SCCN3CCOCC3)n2CC)cc1	-2%	-3.8	7	-10	19
Cc1ccc(OCc2nnc(SCC(=O)NCc3ccco3)n2C)cc1	1%	-3.6	-5	-48	9
Cc1cccc(NC(=O)Nc2cccc3ccccc23)c1	x	-1.1	-4	x	x

Two entries drawn at random from those above:
SMILES	Mtb growth	RecA splice inh	Mtb betalactam	YopH PTP inh	Arbovirus inh	others
O=C1COc2ccc(C(=O)COc3ccc(Cl)cc3Br)cc2N1	x	5.8	-3	x	x
Cc1ccc(-c2csc3nc[nH]c(=O)c23)cc1C	x	0.9	5	x	x

(continued)
SMILES	Mtb growth	RecA splice inh	Mtb betalactam	YopH PTP inh	Arbovirus inh	others
CCN(CC)CCN1C(=O)C2C3c4ccccc4C(c4ccccc43)C2C1=O (centres undefined)	5%	0.8	-20	x	-8	Arbovirus inh repeat=-6
CCOc1ccc(-c2nnc(-c3ccco3)o2)cc1	-1%	2.0	3	-10	-2	Arbovirus inh repeat=-1
Cc1ccc(/C=N/c2sc3c(c2C#N)CCCCC3)o1	3%	-1.2	36	-41	-3
CC(=O)N1CCOc2ccc(S(=O)(=O)Nc3cccc(C)n3)cc21	x	0.9	10	x	x
CNC(=O)Cn1c(=O)n(C)c2ccccc21	-9%	-3.7	1	6	-3
Cc1c(C)n(CC(O)CN2CCCCC2)c2ccccc12 (centres undefined)	2%	-8.8	-2	-147	-4
CC1CCN(C(=O)c2[nH]cnc2C(=O)NCC(=O)OC(C)(C)C)CC1	x	-0.2	-10	x	x
O=C(NCc1ccccc1)c1nnc(CS(=O)(=O)c2ccccc2)o1	x	-2.8	3	x	x
CC1(/[N+]([O-])=C\c2ccccc2F)CCCCC1=O (centres undefined)	x	-4.6	-3	x	x
OCCN1CCN(CC(O)COc2ccc3ccccc3c2)CC1 (centres undefined)	-2%	-3.9	-12	0	-4
O=C(NCc1nc2ccccc2[nH]1)C1=C[C@@H](c2ccc(Br)cc2)C[C@@H](OCCCCO)O1	-1%	5.4	94	x	-9
CCc1nnc(NS(=O)(=O)c2ccc(NC(=O)c3cc(Cl)ccc3Cl)cc2)s1	5%	-6.7	-2	x	5
O=C(c1ccccc1F)N1CCN(c2ccc([N+](=O)[O-])c3ncccc23)CC1	2%	23	0	-7	2
Cc1cc(Br)cc(Br)c1OCC(=O)NNC(=O)Nc1ccccc1	x	-0.1	4	x	x
CC(C)(C)C(=O)/C=C(\N)c1ccncc1	0%	0.3	-2	-39	-3
CC1=NN(C(N)=S)C(=O)C1N=Nc1ccc(C)c(Br)c1 (centres undefined)	x	6.2	95	x	x
CC(=O)N1CCN(S(=O)(=O)c2ccc(S(=O)(=O)NC3CC3)cc2)CC1	-4%	0.0	7	-25	1
COc1ccc(OCCOC(=O)c2cccc(-n3cnnn3)c2)cc1	2%	1.6	2	-25	-7
Cc1c(-n2c(=S)[nH]c3ccccc3c2=O)c(=O)n(-c2ccccc2)n1C	2%	-0.3	11	-5	8
COc1ccc(C2SCCN2S(=O)(=O)c2ccccc2)cc1 (centres undefined)	1%	-0.2	-3	x	-19
COCCN1CN=C(Nc2nc3ccccc3o2)NC1	4%	-1.1	-1	-90	8
CS(=O)(=O)c1ccc2nc(NC(=O)c3ccc(Cl)nc3)sc2c1	4%	1.3	2	x	22
Cn1c(SCC(=O)Nc2ccccc2Cl)nnc1C1CC1	x	-2.1	5	x	x
Cc1ccc(CNC(=O)CN(Cc2ccccc2)S(C)(=O)=O)cc1	-9%	4.9	-11	-37	-1
Cn1c(=O)c(=O)n(C)c2cc(S(=O)(=O)N3CCCCCC3)ccc21	-4%	-0.5	6	-47	1
CN(Cc1cc2ccccc2[nH]c1=O)C(=O)C1CCCCC1	6%	-1.6	-11	-27	14
CCCCCCC(=O)Oc1ccc(N2C(=O)CCC2=O)cc1	7%	5.4	3	x	7
Cc1ccc(C(c2nnnn2CS(=O)(=O)c2ccc(C)cc2)N2CCC(C(N)=O)CC2)cc1 (centres undefined)	-7%	0.6	-12	-42	0

4 entries from above, arranged by length of the SMILES, falling.
SMILES	Mtb growth	RecA splice inh	Mtb betalactam	YopH PTP inh	Arbovirus inh	others
CS(=O)(=O)c1ccc2nc(NC(=O)c3ccc(Cl)nc3)sc2c1	4%	1.3	2	x	22
Cc1cc(Br)cc(Br)c1OCC(=O)NNC(=O)Nc1ccccc1	x	-0.1	4	x	x
CC1(/[N+]([O-])=C\c2ccccc2F)CCCCC1=O (centres undefined)	x	-4.6	-3	x	x
Cc1ccc(/C=N/c2sc3c(c2C#N)CCCCC3)o1	3%	-1.2	36	-41	-3
